# Screening data: PubChem BioAssay, Fisher Drug Discovery Resource Center
# NPYLR7 ag – activates Aedes aegypti NPYLR7 receptor; activation, % at 10 µM; 270,000 tested, 0.15% active; AID 1259423; HEK293T NPYLR7/Galpha15, GCaMP6s calcium fluorescence; in the data active means activation above about 40%;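 further: 0% = vehicle and 100% = reference agonist at the receptor; some compounds past the cut are filed as inactive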
# NPYLR7 ag max-min – recorded beside NPYLR7 ag, whose call it bears; activation, %; measured here: Max-Min RFU normalised activation; some inactives read as strong as hits;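 span of the calcium signal over five minutes; 0% = vehicle and 100% = native peptide agonist; compound fluorescence can raise it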
# Active calls of the source: *; & = joins results of further samples. A portion of the library, so the mix of outcomes need not match the whole.
SMILES,NPYLR7 ag,NPYLR7 ag max-min
CSc1ccc(C(=O)CCC(=O)NCCOc2ccccc2)cc1,-8,-12
OCc1ccccc1-n1ccc(-c2cccnc2)n1,8,6
O=C(Cc1ccccc1)Nc1cccc(-c2ccc3nnc(-c4ccncc4)n3n2)c1,-14,-8
COCC(=O)NCCOc1ccc2nnc(-c3ccccc3)n2n1,-9,-13
Cn1nnnc1SCCn1cnc2c1c(=O)n(C)c(=O)n2C,0,6
C[C@H]1C(=O)N(C)CCN1C(=O)CCc1nnc(-c2ccc(-c3ccccc3)cc2)o1,2&3,-2&-1
COc1cccc(C(C)N2CCC(OCC3CCCCO3)CC2)c1 (stereo not given),2,3
CN1C[C@H](O)[C@]2(CCN(CCc3ccccc3)C2)S1(=O)=O,3,6
CSc1ccc(NC(=O)CCC(=O)c2ccc3c(c2)OCCO3)cc1,1,6
O=c1[nH]nc(CN2CCCCC2)n1-c1ccc2c(c1)OCO2,4,3
Cc1ccc(-c2n[nH]c(=S)n2CC(=O)Nc2nccs2)cc1,18,8
O=C1N=c2ccccc2=C1c1sc(=O)[nH]c1O,-8,-14
O=C(NC(c1ccccc1)c1ccccc1)C1CCCN1c1nc(Cc2ccc(F)cc2)ns1 (stereo not given),24,24
CCOc1cccc2c1OC[C@@H]1CN(CCOC)C(=O)CCN(C(=O)c3cccs3)[C@H]21,20,27
CN(c1ccccc1)c1nc(N2CCOCC2)c2cnn(C)c2n1,1,-1
CC(C)C(C)N(Cc1ccc(Cl)cc1)Cc1nc(C(=O)N2CCCC2)co1 (stereo not given),3,-9
O=C(c1cccc(Oc2ccccc2)c1)N1CCCC(O)(CO)CC1 (stereo not given),10,4
CCN(C(=O)c1cccc(S(=O)(=O)N2c3ccccc3CC2C)c1)C1CCCCC1 (stereo not given),14,10
COc1cc2[nH]c(=O)n(CCCCC(=O)NCc3ccc(N(C)C)cc3)c(=O)c2cc1OC,-4,-4
Cc1ccc(F)c(NC(=O)C(=O)N2CCCC(NC(=O)C(C)C)C2)c1 (stereo not given),6,5
O=C(c1cncc(Br)c1)N1CCN(c2nccc(-c3ccco3)n2)CC1,4,11
Cc1cc(Oc2ccccc2)nc(SCc2ccc(C(C)(C)C)cc2)n1,4,7
COc1cc(-c2nc(=O)[nH]c3ccc(Cl)cc23)cc(OC)c1OC,8,9
COc1cccc(C(=O)NC(C(=O)N2CCCC2)C2CCN(S(=O)(=O)c3ccc(C)cc3)CC2)c1 (stereo not given),10,9
CC(C)(C)NC(=O)CSc1cn(CC(=O)N2CCCCC2)c2ccccc12,-8,-10

# Shown as labelled records: three of the compounds above.
Cc1ccc(F)c(NC(=O)C(=O)N2CCCC(NC(=O)C(C)C)C2)c1 (stereo not given)
  NPYLR7 ag: 6; NPYLR7 ag max-min: 5

O=C(c1cncc(Br)c1)N1CCN(c2nccc(-c3ccco3)n2)CC1
  NPYLR7 ag: 4; NPYLR7 ag max-min: 11

Cc1cc(Oc2ccccc2)nc(SCc2ccc(C(C)(C)C)cc2)n1
  NPYLR7 ag: 4; NPYLR7 ag max-min: 7

# Going on with the list.
SMILES,NPYLR7 ag,NPYLR7 ag max-min
O=c1[nH]n2c(=O)c3ccccc3nc2c2ccccc12,4,-1
Cc1ccc(-c2nnc(SCC(=O)NCCCN3CCCC3=O)o2)cc1C,2,3
O=C(NCC1CCCO1)c1csc2c1CCCC2 (stereo not given),0,-2
Cc1c(Cl)ccc2sc(N(Cc3ccccn3)C(=O)c3cccc(N4C(=O)CCC4=O)c3)nc12,2,-5
O=c1ccc(-c2cccs2)nn1CCNS(=O)(=O)c1ccccc1C(F)(F)F,2,-1
O=C(CCCn1nc(-c2ccco2)ccc1=O)N(Cc1ccccc1)c1ccccc1,-2,-2
COc1ccc(COC(=O)C2=C(C)NC3=C(C(=O)CCC3)C2c2coc3ccccc3c2=O)cc1 (stereo not given),-8,-11
CCOc1ccccc1N1C(=O)CSC1c1ccc(NC(=O)COCc2ccccc2)cc1 (stereo not given),2,6
CNC(=O)CSc1nnc(N2CCN(C(=O)c3cc(C)oc3C)CC2)s1,-14,-14
Cn1nnc2c(N3CCN(C(=O)c4cccc5ccccc45)CC3)ncnc21,2,7
CCN(Cc1ccccc1)C(=O)c1ccc(CS(C)(=O)=O)o1,12,9
Cc1cc(C(=O)N2CCc3ccccc3C2c2ccc(F)cc2)co1 (stereo not given),-2,8
COC(=O)c1ccccc1CN(CCC(C)C)Cc1cccn1Cc1cccc(C(F)(F)F)c1,-1,1
Cc1ccc(Cn2nc(-c3cccs3)c3sc(C)nc3c2=O)cc1,3,-2
CCCCCCCCCCCC(=O)Nc1ccc(N2CCN(c3ccccc3OC)CC2)c(C(=O)NCC2CCCO2)c1 (stereo not given),-12,-4
CN(Cc1nccn1Cc1ccccc1)S(=O)(=O)NCc1ccccc1,1,-5
COc1ccc(CCNS(=O)(=O)c2ccc(OC)c3ccccc23)cc1OC,2,0
O=C(Nc1ccc(F)c(-c2nnc3n2CCCCC3)c1)c1cc(F)c(F)cc1Cl,4,1
Cc1nccn1CC(C)CNC(=O)N1CCC(C(C)C)CC1 (stereo not given),6,1
COc1cc(OC)cc(C(=O)NCCc2cc3ccc(C)c(C)c3[nH]c2=O)c1,1,-4
COc1ccc(C(C#N)(CCC#N)CCC#N)cc1OC,-9,-6
O=C(NNC(=O)c1cc2c(s1)CCCC2)c1ccco1,3,8
COC(=O)CCCCCCCCC(=O)NCCC(=O)N1CCC(C(=O)N2CCOCC2)CC1,-10,3
COc1ccc2[nH]c3c(c2c1)CCN(C(=O)c1cc(Cl)sc1Cl)C3c1ccc(OCc2ccccc2)cc1 (stereo not given),5,-9
Cc1cc(OCCCC(=O)N2CCC(NC(=O)c3ccccn3)CC2)ccc1Cl,1,0
# Next section.
SMILES,NPYLR7 ag,NPYLR7 ag max-min
O=C(CNc1ccc2c(c1)CCC2)NC(=O)Nc1ccc(Br)cc1,-4,-5
N#Cc1ccccc1NC(=O)CCSc1nncs1,9,9
CC(Nc1ccc(N(C)Cc2ccccc2)cc1)C(=O)NC(N)=O (stereo not given),-1,-4
Cc1[nH]cnc1-c1n[nH]c(=O)n1Cc1cccs1,26,16
S=C1NC2=C(CCCC2=C2SCCCS2)C(c2ccccc2)N1 (stereo not given),18,9
Cc1ccccc1NC(=O)Nc1ccc(N2CCCC2)c(C(=O)NCc2ccccc2)c1,7,4
CCC(C)C(=O)N1CCC(CCc2ccc3c(c2)OCO3)CC1 (stereo not given),4,0
Cc1ccc(-c2ccc(Nc3ccc(Oc4ccccc4)cc3)nc2)cc1C,-9,-13
Cc1nc(SCC(=O)c2cc(C)n(C)c2C)n(CC(C)C)c1C,5,3
COc1ccc(CCNC(=O)c2csc(CSc3nnc(-c4ccncc4)n3-c3ccccc3C)n2)cc1OC,17,19
O=C(NCCCCCC(=O)N1CCC(c2ccc(F)cc2)CC1)OCc1ccccc1,1,-10
O=C(NCCC1=CCCCC1)c1ccc(CSc2nnc3ccccn23)cc1,-5,-12
COCCN(CC(=O)N(CCc1ccccc1)Cc1ccc(C)o1)Cc1cc(C)ccc1C,7,13
Nc1c(C(=O)Nc2cc(Cl)ccc2Cl)sc(NC2CCCCC2)c1C(=O)NC1CC1,-2,-3
CC(=O)NCC1=CCCN(CCN2CCCC2)C1,14,6
COCCNC(=O)c1cn(Cc2ccccc2)nc1OCc1ccccc1,-15,-15
O=C1NCCN(Cc2ccccc2C(F)(F)F)C1CC(=O)N1CCCCO1 (stereo not given),18,4
COc1cc(=O)n2c(c1C(=O)NC(C)c1ccco1)CCN(Cc1cn(C)nc1C)CC2 (stereo not given),6,6
Cc1ccc(SCC(=O)N2CCN(Cc3ccccc3)C2=O)cc1,10,1
O=S(=O)(Oc1cccc(-c2nc3ccc(Br)cn3c2NC2CCCCC2)c1)c1cccc2ccccc12,0,9
Cc1cc(NC(=O)C(OC(=O)c2ccccc2)c2ccccc2)no1 (stereo not given),-2,-2
C=CCNC(=O)C(NC(=O)c1cccc(OC)c1)C1CCN(C(=O)c2ccc(OC)cc2)CC1 (stereo not given),-3,1
CCOCCCN(CC(=O)N1CCc2sccc2C1c1ccccc1C)C(=O)COC (stereo not given),15,15
CCCCc1ccc(S(=O)(=O)Nc2nccnc2-c2ccc(COc3cc(CC)nc4ccccc34)cc2)cc1,-3,25
CCOCC(=O)Nc1ccc(Sc2cccs2)cn1,-2,-5

# Single records, from the list above:
# `CCC(C)C(=O)N1CCC(CCc2ccc3c(c2)OCO3)CC1` (stereo not given) across the screens: NPYLR7 ag: 4; NPYLR7 ag max-min: 0
# `Cc1ccc(-c2ccc(Nc3ccc(Oc4ccccc4)cc3)nc2)cc1C` across the screens: NPYLR7 ag: -9; NPYLR7 ag max-min: -13
# `N#Cc1ccccc1NC(=O)CCSc1nncs1` across the screens: NPYLR7 ag: 9; NPYLR7 ag max-min: 9

# The main list resumes, repeating the 3 entries before the break.
SMILES,NPYLR7 ag,NPYLR7 ag max-min
CCOCCCN(CC(=O)N1CCc2sccc2C1c1ccccc1C)C(=O)COC (stereo not given),15,15
CCCCc1ccc(S(=O)(=O)Nc2nccnc2-c2ccc(COc3cc(CC)nc4ccccc34)cc2)cc1,-3,25
CCOCC(=O)Nc1ccc(Sc2cccs2)cn1,-2,-5
CC1CN(c2cc(Oc3ccccc3F)ncn2)CCN1C(=O)c1ccccc1Cl (stereo not given),9,9
CCCC1=NN(C(=O)c2ccc(Br)cc2)C(O)(C(F)(F)F)C1 (stereo not given),5,4
COC(=O)c1sc2cc([N+](=O)[O-])cc(SC3CCCCC3)c2c1NC(C)=O,19,17
CCCNC(=O)C1CCC(Cn2c(=O)c3sccc3n(Cc3ccc(C)cc3)c2=O)CC1 (stereo not given),-1,0
COc1ccc(-c2cc(C(=O)O)cc(S(=O)(=O)NC3CC3)c2)c(C)c1,7,-1
COc1ccc(C(=O)NN=Cc2c(C)nn(Cc3ccccc3)c2Cl)cc1OC,-6,-12
CCOc1cccc(C(=O)N2CCC(n3c(C)nc4cc(C(F)(F)F)ccc43)CC2)c1,2,0
COc1cccc(C(C2Sc3nc(-c4ccco4)nn3C2=O)N2CCCC2)c1 (stereo not given),1,-1
CCOc1cccc2cc(C(N)=O)c(=NCc3ccccc3)oc12,3,-3
O=C(NC1CCCC1)c1ccc(NCc2ccc(N3CCCC3)nc2)nn1,-2,-8
COc1cc2c(cc1OC)C(c1ccc(F)cc1)N(C(=O)Nc1cc(OC)c(OC)c(OC)c1)CC2 (stereo not given),-2,0
O=C(/C=C/c1ccc(Cl)cc1)Nc1nccs1,-4,-7
COc1ccc(CCOC(=O)C2CCCCN2C(=O)C(C)(C)Oc2ccc(CCNC(=O)c3ccc(Cl)cc3)cc2)cc1OC (stereo not given),-21,-29
C=CCn1c(SCc2ccc(C)cc2)nc2c1c(=O)[nH]c(=O)n2C,-8,7
Cc1ccc2cc(CNc3ccc(C#N)cc3)c(Cl)nc2c1,2,0
CCCC(O)CN(CCN1CCOCC1)Cc1cccc(C)c1 (stereo not given),-2,4
CCn1nnc2c(N3CC(C)CC(C)C3)ncnc21 (stereo not given),8,1
C=CCn1c(SCC(=O)c2cc(C)sc2C)nnc1-c1ccncc1,5,-2
O=C1c2ccccc2C(=O)c2c1c(C(=O)OCc1ccccc1)c1ccccn21,-4,-11
Cc1ccc(Cl)cc1Nc1ncccc1C(=O)N1CCCC2CCCCC21 (stereo not given),-5,-11
CCC(C)c1ccccc1NC(=O)c1ccc(=O)[nH]c1 (stereo not given),8,7
OCc1sc(N2CCOCC2)nc1-c1ccccc1,0,1
O=[N+]([O-])c1ccccc1C1c2cccn2CCCN1Cc1c(F)cccc1F (stereo not given),2,13
COc1cc(NC(=O)COc2cc(F)ccc2[N+](=O)[O-])cc(OC)c1OC,-6,-7
Cc1cc(NC(=O)CN2C(=O)/C(=C/c3c(Cl)cccc3Cl)SC2=S)no1,-3,-5

# Two of these compounds in another layout:
Structure | NPYLR7 ag | NPYLR7 ag max-min
O=C(/C=C/c1ccc(Cl)cc1)Nc1nccs1 | -4 | -7
COc1ccc(CCOC(=O)C2CCCCN2C(=O)C(C)(C)Oc2ccc(CCNC(=O)c3ccc(Cl)cc3)cc2)cc1OC (stereo not given) | -21 | -29

# Later entries
SMILES,NPYLR7 ag,NPYLR7 ag max-min
CCN(CCn1cccn1)Cc1cn(C)nc1-c1cccc(Cl)c1,-9,-13
CC1(C(=O)Nc2ccccc2F)CCN1Cc1ccc(-c2ccccc2)o1 (stereo not given),8,2
COCCN(Cc1ccc(OC)cc1)CC(O)COc1ccccc1C (stereo not given),-1,12
COc1ccc(CNS(=O)(=O)c2ccc(Cl)c(Cl)c2OC)cc1,4,3
O=C(O)c1cc(-c2ccncc2)cc(S(=O)(=O)N2CCSCC2)c1,-1,1
CC1=NN(c2cccc(C(=O)O)c2)C(=O)/C1=C\c1ccc(N(C)C)cc1,-5,-11
Cc1nc(SC(C)C(N)=O)c2c3c(sc2n1)CCC3 (stereo not given),-7,-6
O=C(COc1cccc(F)c1)Nc1nc(-c2ccco2)c(-c2ccco2)s1,11,9
O=C(c1cn(C(c2ccccc2)c2ccccc2)nn1)N1CCCCC1c1ccccn1 (stereo not given),1,-2
CC(=O)OC12CC3CC(C1)CC(C(=O)O)(C3)C2,11,15
